Assay outcomes as filed in PubChem.
GLA inh pH 4.5: qHTS Assay for Inhibitors of Human alpha-Galactosidase at pH 4.5; purified enzyme, 4-MU-alpha-Gal fluorescence, pH 4.5; activity change, negative = inhibition, % at 105 µM; 230,000 tested, under 10 active; inconclusive = small, poorly fitted or top-dose-only inhibition, or a rising curve; inactive = flat fitted curve, though single readings scatter; no compound was filed as active;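 further: 0% = full activity with enzyme and -100% = basal without enzyme; dose as in the result columns while the protocol names 77 µM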
Target sequence (P06280 whole entry, looked up): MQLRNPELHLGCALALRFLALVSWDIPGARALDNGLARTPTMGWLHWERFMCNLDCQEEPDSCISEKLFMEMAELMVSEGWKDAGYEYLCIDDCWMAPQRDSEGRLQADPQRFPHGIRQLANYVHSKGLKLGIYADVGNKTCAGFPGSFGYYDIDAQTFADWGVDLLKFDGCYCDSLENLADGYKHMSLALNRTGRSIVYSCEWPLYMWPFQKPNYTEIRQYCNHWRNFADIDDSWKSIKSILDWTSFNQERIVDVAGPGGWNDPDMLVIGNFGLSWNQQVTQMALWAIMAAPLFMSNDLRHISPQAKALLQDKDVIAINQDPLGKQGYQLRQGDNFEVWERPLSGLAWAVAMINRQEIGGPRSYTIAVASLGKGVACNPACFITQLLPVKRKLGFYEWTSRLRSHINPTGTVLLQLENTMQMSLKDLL
Rango dissoc inh: qHTS Assay for Inhibitors of RanGTP induced Rango (Ran-regulated importin-beta cargo) - Importin beta complex dissociation; Potency, µM (top dose mostly 46.1 µM), inactives show top-dose activity change, negative = inhibition; Snurportin-1 (Homo sapiens) + GTP-binding nuclear protein Ran (Homo sapiens) + Importin …; Biochemical FRET Rango-importin beta, RanGTP-induced dissociation; AID 540253, 2011; 340,000 compounds, 0.071% hits; active means falling FRET ratio curve, often poorly fitted, with flat reads before Ran was added; inconclusive means other falling curves, or compound fluorescence or quenching; inactive means flat or rising ratio curve;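 further: potency means the concentration at half of the fitted maximal effect; % of control where 0% means no effect; nearly all actives have a fitted effect of over 45% in size; -100% = wells without RanGTP and RCC1; the record marks most hits as doubtful in a second field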
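Recombinant Rango FRET biosensor (EYFP–snurportin 1 IBB–cerulean CFP10) at 0.1 uM premixed with 0.25 uM importin beta in PBS, 1 mM DTT, 0.02% Tween-20, 0.1% BSA. Compound added 5 min; RanGTP-RCC1 (0.6 uM Ran, 2 mM GTP, 0.2 uM RCC1) then triggers release, read at 45 min.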
Rango complex inh: qHTS Assay for Inhibitors of Rango (Ran-regulated importin-beta cargo) - Importin beta complex formation | AID 540263, 2011 | Potency, µM (highest dose often 92.2 µM), without a hit: at the top dose inhibition of complex formation | 340,000 compounds, 0.031% hits | Rango CFP/YFP FRET sensor + importin beta, 45 min; active = rising FRET ratio curve, often small or poorly fitted; inconclusive = mostly compound fluorescence or quenching in the first reads; inactive = flat curves in all reads;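 further: potency means the concentration at half of the fitted maximal effect; 0% = DMSO wells and 100% = buffer wells lacking importin beta; nearly all actives have a fitted effect of over 15% in size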
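Inhibition scored from the CFP 486 nm/YFP 530 nm FRET ratio 45 min after adding 0.125 microM importin beta to 50 nM Rango biosensor preincubated 5 min with compound (room temperature, PBS with DTT, Tween-20, BSA). No-importin wells as positive control.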
miR-21 reporter: qHTS Assay for Modulators of miRNAs and/orActivators of miR-21 | AID 2288, 2010 | 340,000 tested, under 10 active | Potency, µM (series often up to 38.3 µM), without a hit: at the highest dose reporter change, positive = more light | HeLa miR-21 FLuc reporter, luciferase, 48 h; active = well fitted rising curve with a large enough effect; inconclusive = small, poorly fitted or top-dose-only effect; inactive = no such curve, though single readings can be large or run the other way;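 further: % of control where 0% means no effect; miR-21 action dims this reporter so a rising signal means less miR-21 action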
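HeLa cells stably expressing CMV-driven firefly luciferase with a downstream miR-21 binding sequence, endogenously expressing miR-21, were treated with titrations (up to about 40uM final) for 48 hours at 37 degree Celsius. Luciferase luminescence was read after lysis.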
Numbers without * were called inactive; ? = inconclusive; · = no result given; [ ] = another dose, or the depositor's remark. An excerpt, so the mix of outcomes need not match the whole.

compound	GLA inh pH 4.5	Rango dissoc inh	Rango complex inh	miR-21 reporter
Cn1cc(C2CC(c3ccccc3)=NN2C(=O)c2ccccc2)c2ccccc21 (configuration not stated)	-4.3	-0.7%	?	-14.3%
NC(=O)CSc1nc2c(sc3ccccc32)c(=O)n1CCCC(=O)NCC1CCCO1 (configuration not stated)	-5.5	7.3%	?	8.0%
Cn1c(CNC(=O)Nc2ccccc2Cl)nnc1SCc1ccccc1	3.3	-11.3%	-1.1%	1.2%
CCOC(=O)c1ccc(NCc2nc3ccccc3[nH]2)cc1	7.0	-12.3%	2.4%	-52.1%
Cc1cc(C)cc(C(=O)N/N=C/c2ccoc2)c1	·	4.6%	-0.6%	0.0%
COc1cc(O)c(C(CCN2CCOCC2)c2ccc3c(c2)OCO3)c(OC)c1 (configuration not stated)	-7.4	-9.1%	-2.7%	-5.6%
COc1ccc(NC(=O)C2CCC(=O)N2C(=O)OCc2ccccc2)cc1 (configuration not stated)	·	19.1%	2.6%	-1.5%
Nc1ccccc1Sc1ccc(C(=O)c2ccccc2C(=O)O)cc1[N+](=O)[O-]	-0.3	-10.4%	0.0%	0.5%
CCCCN1CCCCC1C(=O)Nc1c(C)cccc1C (configuration not stated)	-4.9	10.5%	4.3%	·
COc1cccc(C=Nc2ccc3c(c2)CCC3)c1O	·	-14.3%	5.8%	2.1%
CCC1=Nc2cc(C(=O)NCC3CCCO3)ccc2Sc2ccc(Br)cc21 (configuration not stated)	-12.7	9.2%	0.2%	21.6%
Cc1c(OCC(=O)NC(Cc2ccc(Cl)cc2)C(=O)O)ccc2c3c(c(=O)oc12)CCC3 (configuration not stated)	·	-1.5%	-1.7%	-3.0%
O=C1C2C3C=CC(CC3)C2C(=O)N1c1cccc(C(F)(F)F)c1 (configuration not stated)	·	4.4%	2.5%	0.1%
O=C(Nc1nc2ccccc2n1CCN1CCOCC1)c1ccccc1	·	1.0%	4.1%	11.8%
N#Cc1cc([N+](=O)[O-])ccc1NC(=O)COC(=O)CN1C(=O)C2CCCCC2C1=O (configuration not stated)	·	43.5%	3.2%	·
COC(=O)[C@H](C)NC(=O)Nc1ccccc1F	0.9	15.7%	-0.8%	-4.5%
O=C(NC1CCCC1)C1CCN(c2cnccn2)CC1	12.2	-15.5%	-2.5%	0.0%
CCOC(=O)c1c(C)[nH]c(C(=O)NCCN2CCOCC2)c1C	·	8.6%	?	-3.1%
CCN(CCn1cccn1)C(=O)CC1C(=O)NCCN1Cc1ccc(F)cc1 (configuration not stated)	6.0	2.6%	0.0%	4.0%
COc1ccccc1Nc1nc(N)nc(CN2CCCCCC2)n1	4.8	0.4%	0.5%	1.7%

Some of these compounds in order of their number in GLA inh pH 4.5, highest first:
compound	GLA inh pH 4.5	Rango dissoc inh	Rango complex inh	miR-21 reporter
O=C(NC1CCCC1)C1CCN(c2cnccn2)CC1	12.2	-15.5%	-2.5%	0.0%
COc1ccccc1Nc1nc(N)nc(CN2CCCCCC2)n1	4.8	0.4%	0.5%	1.7%
CCCCN1CCCCC1C(=O)Nc1c(C)cccc1C (configuration not stated)	-4.9	10.5%	4.3%	·
COc1cc(O)c(C(CCN2CCOCC2)c2ccc3c(c2)OCO3)c(OC)c1 (configuration not stated)	-7.4	-9.1%	-2.7%	-5.6%

Further records follow:
compound	GLA inh pH 4.5	Rango dissoc inh	Rango complex inh	miR-21 reporter
Cc1cc(O)c(C=Nc2cccc(Cl)c2)c(=O)o1	-5.8	?	?	-4.5%
CCC1(c2ccc(OC)cc2)NC(=O)N(CC(=O)c2ccc3c(c2)OCCO3)C1=O (configuration not stated)	·	?	?	·
CN1C(=O)c2cccc3c(S(=O)(=O)N4CCCC4C(=O)O)ccc1c23 (configuration not stated)	·	?	?	9.4%
COCCCn1c(O)c(/C=C2\N=C(C#N)C(=Nc3ccc(C)cc3)O2)sc1=S	-8.9	-4.9%	?	-1.7%
CCc1cc(C(=O)Nc2ccccc2N2CCOCC2)sc1C	·	13.7%	1.7%	·
Cc1csc(NC(=O)c2cccnc2Cl)n1	·	12.4%	2.9%	·
CC(C)Oc1cccc(C(=O)C2CCCN(C(=O)c3ccccn3)C2)c1 (configuration not stated)	·	1.5%	0.8%	1.8%
CCCN1CCN(C(=O)Cn2cnc3ccc(S(=O)(=O)N4CCC(C)CC4)cc3c2=O)CC1	4.4[21.1 µM]	1.2%	1.5%	0.0%
O=C(NCc1nc2ccccc2[nH]1)C1=C[C@H](c2ccccc2)C[C@H](OCc2ccc(CO)cc2)O1	-10.6	10.4%	0.7%	0.7%
COc1cc(C2CC(=O)n3c(nc4ccccc43)S2)cc(OC)c1OC (configuration not stated)	11.9	·	·	-3.3%
CN1C(C(=O)NCc2cccc(Br)c2)CC2Cn3c(nc4ccccc43)C21 (configuration not stated)	2.1	-15.1%	-2.6%	-2.4%
C/C(=N/NC(=O)c1nnn(-c2nonc2N)c1COc1ccccc1)c1ccc(O)cc1	·	2.2%	0.0%	1.6%
CC(C)(C)C(=O)Nc1nc2cc3c(cc2s1)OCO3	-4.7	42.0%	-1.4%	-10.6%
O=C(CN1C(=O)NC2(CCCC2)C1=O)OCCOc1ccccc1	·	-0.6%	2.0%	-2.2%
COc1ccccc1N1CCN(S(=O)(=O)c2cc3c(cc2C)NC(=O)CO3)CC1	·	22.4%	-0.7%	0.0%
COc1ccc(OC)c(/C=C/C(=O)OCC(=O)N2CCCC2)c1	·	-16.7%	-5.9%	·
Brc1ccc(-c2nc3ncccn3c2Nc2ccc3c(c2)OCCO3)o1	-1.3	-14.8%	?	-6.1%
Fc1cc(F)cc(Nc2nc(Cl)nc(NC3CCCC3)n2)c1	·	?	-4.9%	·
CCCCCC(C)NC(=O)c1cc(S(=O)(=O)N2CCCCC2)ccc1N1CCOCC1 (configuration not stated)	·	20.3%	-3.3%	·
CC1CCN(CCCNC(=O)c2ccc(CS(=O)(=O)Cc3ccc(Cl)cc3)o2)CC1	·	-5.0%	-4.9%	0.0%
CCCN(CC1CC1)C(=O)COC(=O)c1oc2c(F)cccc2c1C	·	-12.2%	1.3%	·
CC(C)NC(=O)COC(=O)c1ccccc1Oc1ccccc1	-7.0	2.8%	-0.7%	-9.6%
COc1cc(NC(=O)c2cccc(S(=O)(=O)N3CCCCC3)c2)cc(OC)c1OC	·	-23.0%	-0.9%	·
O=C(O)C1Sc2[nH]c(=O)sc2C2c3ccc(O)cc3OC(=O)C12 (configuration not stated)	-2.7	?	?	-1.2%
O=C(O)c1cc(S(=O)(=O)N2CCOCC2)ccc1N1CCCCC1	9.2	9.6%	4.3%	-0.9%
CCC(C)(C)NC(=O)CN(C(=O)CNS(=O)(=O)c1ccccc1)c1ccc2c(c1)OCCO2	·	-1.6%	-2.2%	-7.1%
Cc1cc(N=Nc2ccc(Cl)cc2)cc(CN2CCOCC2)c1O	-9.0	?	-0.9%	-6.3%
Cc1cc(C)nc(NC(=O)c2ccc(Br)s2)n1	·	?	6.7%	-1.3%
COc1ccc(C)cc1Nc1n[n+](C)c(-c2ccc(C(=O)O)cc2)s1	1.7	·	·	-4.4%
Cc1ccc(OCc2n[nH]c(=S)n2N)cc1C	9.7	-7.6%	4.0%	-9.5%
COC(=O)c1ccccc1NC(=O)COC(=O)CSc1nnc(N)s1	1.6	-12.4%	3.7%	-0.4%
COCCCN1C2=C(C(=O)CC(C)(C)C2)C(c2ccc(OC)c(OC)c2)C2=C1CC(C)(C)CC2=O	·	-9.9%	?	4.8%
O=C(c1ccccc1)c1cc(-c2ccccc2)on1	-2.5	-6.4%	-1.5%	-60.0%
COC(=O)c1ccc(C(=O)OC)c(NC(=O)C2CCCO2)c1 (configuration not stated)	·	13.4%	0.3%	1.2%
Cc1ccc(N2CCN(CC(O)COc3cccc4ccccc34)CC2)cc1 (configuration not stated)	-10.6	0.3%	0.4%	1.2%
COc1cc(Cl)ccc1NC(=O)COc1ccccc1C(=O)NN	6.9	-2.0%	-0.1%	0.1%
CC(C)c1ccccc1OCCNC(=O)c1cncc(Br)c1	-0.6	5.0%	-1.0%	18.2%
Cc1ccc(F)c(N=Cc2c(O)c3ccccc3oc2=O)c1	·	-12.5%	3.7%	-4.6%
O=C(Nc1ccc(C#Cc2ccccc2)cc1)C1CC1	-4.3	-4.3%	-3.5%	-12.1%
Cn1c(=O)cc(OCC(=O)N2CCCc3ccccc32)c2ccccc21	3.7	8.0%	-2.6%	-1.9%
COc1ccc(-n2c(SCC(=O)NCC3CCCO3)nc3ccccc32)cc1 (configuration not stated)	-4.3	-2.3%	2.7%	1.3%
COc1cc(C=O)c(Br)cc1OCC(=O)NCCc1ccccc1	3.8	11.5%	1.0%	-6.8%
COc1ccccc1C(CNC(=O)c1cc(C)nc2ccccc12)N(C)C (configuration not stated)	·	-1.4%	1.6%	-5.1%
CC1=NN(c2nc(-c3ccc(C)cc3)cs2)C(=O)C1N=Nc1ccccc1O (configuration not stated)	-1.8	21.4%	0.3%	-16.0%
COc1ccc(Cl)cc1NC(=O)CN(C)C(=O)/C=C/c1ccco1	·	-1.5%	-4.3%	·
O=C(O)c1cn(-c2ccc(F)cc2)c2cc(N3CCNCC3)c(F)cc2c1=O	3.6	5.6%	-1.0%	·
CN(C)S(=O)(=O)c1ccc(C(=O)N2CCN=C2SCc2cccnc2)cc1	2.9	-4.1%	-2.5%	3.7%
O=C(CC(NS(=O)(=O)c1ccc(Cl)cc1)c1ccco1)NCc1cccnc1 (configuration not stated)	1.1	-1.7%	0.1%	0.0%
CC(=O)OC1C(=O)N(Cc2ccccc2)C1c1ccc(C)cc1 (configuration not stated)	·	0.1%	?	·
O=C(CN(Cc1ccccc1)S(=O)(=O)c1ccc2c(c1)OCCO2)N/N=C/c1ccc(F)cc1	-19.2	23.1%	2.4%	-8.6%

The results go on.
compound	GLA inh pH 4.5	Rango dissoc inh	Rango complex inh	miR-21 reporter
Cc1cccc(NC(=O)CN(CC2CCCO2)C(=O)c2cc3ccccc3o2)c1C (configuration not stated)	·	-16.6%	5.1%	·
Nc1nc(NC(=O)c2ccccc2Cl)nn1-c1ccccc1	1.0	0.6%	-4.2%	-30.5%
O=S(=O)(c1ccccc1)c1ccc(N2CCCCCC2)cc1	·	-24.1%	-2.1%	-7.4%
Cc1[nH][nH]c(=O)c1C=NCc1ccc(Cl)cc1	6.1	-7.3%	-2.2%	-4.7%
CCOC(=O)Nc1ccc2c(c1)N(C(=O)CN1CCN(CCO)CC1)c1ccccc1CC2	·	-5.6%	-0.6%	-6.7%
CCN(CC(=O)Nc1c(F)cccc1F)C(=O)CCc1ccc(OC)cc1	1.4	-0.5%	-1.0%	-9.3%
CCOc1ccc(C(=O)/C=C/c2ccccc2C(F)(F)F)cc1	4.3	-0.4%	3.2%	-10.4%
CCOC(=O)C1CCN(C(=O)Cn2cccc2C(=O)c2ccccc2)CC1	0.8	1.9%	0.1%	-1.4%
COc1ccc(C)cc1NC(=O)Nc1cnccn1	-1.0	-4.3%	-1.4%	-27.2%
CCOC(=O)c1oc2ccccc2c1CSc1nnc(-c2ccco2)o1	-2.5	6.2%	0.8%	-3.2%
O=C(NC1CCCC1)c1cccnc1N1CCCCCC1	-13.6	-1.1%	1.5%	-5.2%
CCOC(=O)C1CCN(C(=O)COC(=O)c2ccc3[nH]c4c(c3c2)CCCC4)CC1	·	21.6%	-0.1%	·
COc1ccc(OCC(=O)Nc2ccccc2C(=O)NC2CC2)cc1	·	-2.5%	0.1%	·
